Calb biofilm kill = mixture kills Candida albicans biofilm cells; C. albicans biofilm persisters + clotrimazole, fluorescence viability; primary screen in compound mixtures of four per well; inhibition, % at 7.6 µM; 120,000 compounds, 0.02% hits; AID 1242;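 active = inhibition above 30.3% in the primary screen of four-compound pools, then above 30% when the compound was retested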;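 note: compounds exposed to preformed 24 h biofilms for 48 h; the number belongs to the whole pool; some results filed as inactive read as strong as hits; inactives centre near 12; 0% = biofilm with clotrimazole alone and 100% = kill control; retested singly at about 60 µM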
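Test system: C. albicans CAF4-2 wild-type biofilms; buffer or medium: RPMI/MOPS medium, pH 7.0; schedule: 24 h biofilm formation, then 48 h compound exposure, 37 °C; detection: Alamar Blue fluorescence; measure: percent inhibition of biofilm viability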
Numbers without * were called inactive. Some of the compounds tested, so the mix of outcomes need not match the whole.

Start of the listing, in advance (five entries):
molecule	Calb biofilm kill
CC(C)CC(NC(N)=O)C(=O)Nc1cccc([N+](=O)[O-])c1 (centres undefined)	13
O=C(Oc1c(-c2ccco2)oc2ccccc2c1=O)c1cccnc1	3
CN(C)c1nc(NCc2ccccc2)nc(N/N=C/c2ccc3c(c2)OCO3)n1	15
Cc1ccn2c(Nc3ccccc3C)c(-c3ccccn3)nc2c1	0
Clc1ccc(/C=N/Nc2ccccn2)cc1	16

Main list, from the start:
molecule	Calb biofilm kill
CC(C)CC(NC(N)=O)C(=O)Nc1cccc([N+](=O)[O-])c1 (centres undefined)	13
O=C(Oc1c(-c2ccco2)oc2ccccc2c1=O)c1cccnc1	3
CN(C)c1nc(NCc2ccccc2)nc(N/N=C/c2ccc3c(c2)OCO3)n1	15
Cc1ccn2c(Nc3ccccc3C)c(-c3ccccn3)nc2c1	0
Clc1ccc(/C=N/Nc2ccccn2)cc1	16
Cc1cccc(N2CCN(C(=O)CN3C(=O)C4CC=CCC4C3=O)CC2)c1C (centres undefined)	9
O=C(CNCc1cccc2ccccc12)Nc1ccccc1[N+](=O)[O-]	13
COc1cc(S(=O)(=O)N2CCN(c3ccccc3F)CC2)c(OC)cc1Cl	9
CCc1ccc2c(c1)C(c1ccc([N+](=O)[O-])cc1)=NNC(c1ccc(C)cc1)=N2	10
COc1ccc(/C=C(\C#N)C(=O)Nc2cccc3ncccc23)cc1OC	23

Next part; it opens with the two that closed the last part.
molecule	Calb biofilm kill
CCc1ccc2c(c1)C(c1ccc([N+](=O)[O-])cc1)=NNC(c1ccc(C)cc1)=N2	10
COc1ccc(/C=C(\C#N)C(=O)Nc2cccc3ncccc23)cc1OC	23
COC(=O)c1c(C)[nH]c(-c2csc(N)n2)c1C	1
Brc1ccc(-c2cnco2)cc1	12
N#CC1=C(N)NC(SCc2ccc(Br)cc2)=C(C#N)C12CCCCC2	13
O=C(NC(=S)Nc1ccc(Cl)cc1)c1ccccc1	15
COC(=O)c1nn(-c2nc(-c3ccc(OC)c(OC)c3)cc(C(F)(F)F)n2)cc1[N+](=O)[O-]	1
CCOC(=O)C(=CNc1cccnc1Oc1ccc(C)c2c1CCC2)C(=O)OCC	10
CC(=O)n1cc(N(C(=O)CCl)c2ccccc2)c2ccccc21	7
Cc1ccc(CNC(=O)C2CC3Cn4c(nc5cc(Cl)c(Cl)cc54)C3N2C)o1 (centres undefined)	13
CN1C(=O)N(C)C2(c3ccccc3)NNC(N)=NC12c1ccccc1 (centres undefined)	-4
CC(=O)c1cccc(NC(=O)N2CCCC2C(=O)Nc2ccc3c(c2)OCO3)c1 (centres undefined)	-6
COc1ccc2cc(C3CC(c4ccco4)=NN3S(C)(=O)=O)c(Cl)nc2c1 (centres undefined)	13
CCOC(=O)CC(NC(=O)Cc1ccc(F)cc1)c1ccccc1Cl (centres undefined)	13
O=C(O)c1ccc2c(c1)CCCN2	4
Cc1ccc(C)c(OCC(=O)O/N=C(\N)c2cccc([N+](=O)[O-])c2)c1	21
Cn1cc([N+](=O)[O-])c(C(=O)Nc2nccs2)n1	-9
COC(=O)N/N=C/c1cn(Cc2ccc(F)cc2)c2ccccc12	25
C=CCn1c(SCC(=O)c2[nH]c(C)c(C(=O)OCC)c2C)nc2scc(-c3ccc(OC)cc3)c2c1=O	5
COc1ccc(Nc2cc(C)c3ccc(O)cc3n2)cc1	4
CC(=O)Nc1ccccc1NS(=O)(=O)c1cccc([N+](=O)[O-])c1	-5
O=c1cc(-c2ccccc2)c2cc3c(cc2[nH]1)OCCO3	10
CC(NC(=O)C(=O)N/N=C/c1ccccc1)c1ccccc1 (centres undefined)	17
c1ccc(N2CC3CCc4ccccc4C3=N2)cc1 (centres undefined)	16
Cc1oc2ccc(O)c(CN3CCOCC3)c2c1C(C)O (centres undefined)	15
Cc1ccc(NC(=O)c2cncc(Br)c2)c([N+](=O)[O-])c1	6
CCOC(=O)N1CCN(C(=O)c2ccc(S(=O)(=O)NCc3ccco3)cc2)CC1	7
Cc1ccc2nc3c(c(C(=O)OCC(=O)NC4CCS(=O)(=O)C4)c2c1)CCCC3 (centres undefined)	11
CC(C)[C@H](NC(=O)c1ccc(Cl)c([N+](=O)[O-])c1)C(=O)O	8
NS(=O)(=O)c1cccc(NC(=O)COC(=O)CCSc2ccccc2)c1	15
CC(C(=O)Nc1ccccc1C(=O)N1CCOCC1)N(c1ccc(Cl)cc1)S(C)(=O)=O (centres undefined)	18
CCN(C(=O)CN1CCN(S(=O)(=O)c2ccccc2C(F)(F)F)CC1)c1c(N)n(Cc2ccccc2)c(=O)[nH]c1=O	14
CCC1(c2ccccc2)NC(=S)N(c2cccc(C)c2C)N1 (centres undefined)	16
COc1cc(C(=O)NCc2nnc(SCC(=O)Nc3cc(C)on3)o2)cc(OC)c1OC	20
O=S(=O)(c1ccc(N2CCOCC2)nc1)N(Cc1ccccn1)Cc1ccccn1	19
Cc1cc(-c2onc(C)c2C(=O)Nc2ccc(C(F)(F)F)cc2)no1	12
COc1ccc(-c2cc(-c3nnc(COC(=O)c4ccc(O)cc4)o3)c3ccccc3n2)cc1OC	12
O=C(CSc1ncn[nH]1)CSc1ncn[nH]1	6
O=C(Cc1ccc(Br)cc1)NC1CCSC1=O (centres undefined)	14
Cc1ccc(C(=O)N[C@H](C(=O)OCC(=O)Nc2cccc(S(N)(=O)=O)c2)C(C)C)cc1	11
Cc1nnc(SCC(=O)NCc2ccc(F)cc2)[nH]c1=O	13
CC(Oc1ccccc1F)C(=O)NNC(=O)c1cc2ccccc2o1 (centres undefined)	1
CCN(CC)C(=O)C(=O)Nc1ccc(F)c(Cl)c1	8
COC(=O)C1=C(CSc2nc3ccccc3s2)NC(=O)NC1c1ccc(F)cc1 (centres undefined)	2
CCN/C=C(\C#N)S(=O)(=O)c1ccc(Br)cc1	8
O=C(CCC(=O)N1CCN(c2ccccc2)CC1)Nc1nnc(C2CCCCC2)s1	16
CCn1nc(C)cc1C(=O)N1CCCC(CCC(=O)NCc2ccccc2F)C1 (centres undefined)	15
CCCCc1ccc(S(=O)(=O)N2CCN(C(=O)c3ccco3)CC2)cc1	13
Cc1nn(CC(=O)NCc2ccc(Cl)cc2)c(C)c1[N+](=O)[O-]	11
COC(=O)c1ccc(COc2cccc(C)c2C)cc1	22
Cc1ccccc1OCC(=O)Nc1ccccc1-c1ccccc1NC(=O)COc1ccccc1C	-7
CCCNC(=O)C(=O)Nc1ccc(N(C)C)cc1	9

The results go on.
molecule	Calb biofilm kill
O=C(Cc1c[nH]c2ccccc12)Nc1ccc(N2CCOCC2)cc1	9
N#CC(c1ccccc1)N(CCCCl)C(=O)c1ccc(Br)cc1 (centres undefined)	12
O=C(NC1CCCC1)c1ccc(CSc2nc3ccncc3n2Cc2ccc(F)cc2)cc1	16
C=CCn1c(SCC(=O)c2c(N)n(C)c(=O)n(C)c2=O)nnc1-c1ccccc1F	9
CCOc1ccc(C2NC(=S)NC3=C2CCc2ccccc23)cc1 (centres undefined)	4
COc1ccc(NC(=O)C(c2ccccc2)N(C)C(=O)c2ccc(=O)[nH]c2)cc1 (centres undefined)	11
CSc1ccc(S(=O)(=O)NCCCOC(C)C)cc1	7
COCCn1c(C)cc(C(=O)Cn2nc(C(=O)O)c3ccccc3c2=O)c1C	7
Cc1cc(C)c(CN2CCN(Cc3ccc(C)o3)C(CCO)C2)c(-n2cccn2)c1 (centres undefined)	28
CCc1nnc2c(N(C)C)nc3ccccc3n12	8
COCCNC(=O)C(=O)NCC1OCCCN1S(=O)(=O)c1cccs1 (centres undefined)	4
Cc1nn(-c2ccccc2)c(C)c1-c1cc(C(=O)N/N=C/c2ccc(O)cc2)[nH]n1	21
CC1=C(C(=O)Nc2ccccn2)C(c2ccc(Br)cc2)NC(=S)N1 (centres undefined)	10
Cc1ccc(NC(=O)C2CC(=O)n3c(nc4ccccc43)N2)cc1C (centres undefined)	7
Cc1cc(C)c2cccc(N)c2n1	32
O=C1c2ccccc2C(=O)N1c1ccc(Cc2ccncc2)cc1	4
CCCCc1nc2ccccc2c(NC(=O)CN2CCN(C)CC2)c1CCC	8
Cc1cc(C)cc(NC(=O)Nc2cc(S(=O)(=O)N(C)C)ccc2C)c1	10
Cc1ccccc1N1CN(Cc2ccco2)CNC1=S	13
CC(Sc1n[nH]c(N)n1)C(=O)Nc1ccccc1-c1ccccc1 (centres undefined)	5

Exported as labelled records: part of the list above.
Cc1nn(-c2ccccc2)c(C)c1-c1cc(C(=O)N/N=C/c2ccc(O)cc2)[nH]n1
  Calb biofilm kill: 21

CC1=C(C(=O)Nc2ccccn2)C(c2ccc(Br)cc2)NC(=S)N1 (centres undefined)
  Calb biofilm kill: 10

Cc1ccc(NC(=O)C2CC(=O)n3c(nc4ccccc43)N2)cc1C (centres undefined)
  Calb biofilm kill: 7

(next part)
molecule	Calb biofilm kill
OC1(c2ccccc2Cl)NN=C2CCCCCN21 (centres undefined)	9
CCOc1ccc(CN2CCNC(=O)C2CC(=O)NCCC2=CCCCC2)cc1 (centres undefined)	17
Cc1cc(N(C)NC(=S)Nc2ccccc2)nc(C)n1	14
CC(C)CN(C(=O)CSc1nn(-c2ccc(Cl)cc2)c(=S)s1)C1CCS(=O)(=O)C1 (centres undefined)	15
CCOC(=O)C1=C(N)OC(CCl)=C(C#N)C1c1ccsc1 (centres undefined)	-11
Cc1ccc(-n2c(SCC(=O)Nc3cc(S(=O)(=O)N4CCOCC4)ccc3Cl)nc3ccccc3c2=O)cc1	9
CC(C)(C)C1=C(C#N)C(c2ccncc2)C(C#N)=C(N)O1 (centres undefined)	0
CSc1ccc(CN(C)C(C)C(=O)Nc2ccc(F)c(F)c2F)cc1 (centres undefined)	3
Cc1ccsc1CNn1cnnc1SCc1ccc(Cl)cc1	7
CCc1ccc(Nc2nnc(SCC(=O)Nc3cccc(S(=O)(=O)NC4=NCCCCC4)c3)s2)cc1	14
O=C(NNc1nc2c(F)cccc2s1)c1ccc(F)cc1	17
CCC(=O)NC(c1ccc(C)cc1)c1cc([N+](=O)[O-])c2cccnc2c1O (centres undefined)	19
COCCCNC(=O)Cn1c(=O)n(CC(=O)NCCc2ccc(OC)c(OC)c2)c(=O)c2sccc21	-14
C(=N\N(Cc1ccccc1)c1ccccc1)/c1ccco1	14
CCN(Cc1ccccc1)c1ccc(/C=C(\C#N)c2ccccn2)cc1	11
Cc1cc(NC(=O)C(=O)NCCN2CCN(S(C)(=O)=O)CC2)ccc1Br	7
O=C(NCCc1c[nH]c2ccccc12)/C(=C\c1cccs1)NC(=O)c1ccccc1	10
O=C(CCC(=O)N(CC(=O)NC1CCCC1)Cc1cccs1)Nc1nccs1	23
CS(=O)(=O)N1CCN(CCN2C(=O)c3cccc4cccc(c34)C2=O)CC1	-6
NC(=O)c1nsc(C(=O)N(CC(=O)NC2CCCC2)Cc2ccc3c(c2)OCO3)c1N	6
CS/C(N)=N/S(=O)(=O)c1ccc(NC(C)=O)cc1	25
CCOC(=O)C1(Cc2cccc(OC)c2)CCCN(Cc2cnn(C)c2)C1 (centres undefined)	4
Cc1cnn(-c2cc(N/N=C/c3cccc(F)c3)ncn2)c1	18
CCOC(=O)c1c[nH]c(=O)c(Br)c1O	3
CCOc1cc([C@@H]2C[C@H]3CN(c4ccccc4)C(=O)[C@]34CCCN24)ccc1OC	11
COc1ccc(/C=N/n2cnc3c([nH]c4ccccc43)c2=O)cc1COc1ccccn1	10
COC(=O)CCCC1=CC2=CC(=O)C(C)(OC(=O)CCc3ccccc3)C(=O)C2=CO1 (centres undefined)	12
CCCOc1ccc(/C=N/NC(=O)CSc2ccccn2)cc1OC	10
COc1cc(NC(=O)c2ccccc2Cl)c(OC)cc1NC(=O)CN1CCCCC1	6
Nn1cc(-c2ccccc2)nc1SCC(=O)NCC1CCCO1 (centres undefined)	9
CCC(=O)N1CCN(c2cc(N3CCN(C)CC3)c(F)cc2[N+](=O)[O-])CC1	12
CC[C@H](C)[C@H](NC(=O)[C@H](Cc1ccc(O)cc1)NC(=O)[C@@H](N)C(C)C)C(=O)N[C@@H](Cc1cnc[nH]1)C(=O)N1CCC[C@H]1C(=O)N[C@@H](Cc1ccccc1)C(=O)O	-6
CCOC(=O)c1cnc(SCC(=O)OC)nc1N	18
COc1ccc(C(C)=O)cc1CN1C(=O)NC(CC(C)C)C1=O (centres undefined)	21
COc1ccc(N(C(=O)CCC(=O)Nc2cc(C)on2)C(C(=O)NC2CCCC2)c2ccco2)cc1 (centres undefined)	19
CCS(=O)(=O)c1ccc2oc(SCC(=O)Nc3ccc(OC)c(OC)c3)nc2c1	15
O=C(NCc1ccco1)C1CC(c2cc(C(F)(F)F)cc(C(F)(F)F)c2)=NO1 (centres undefined)	12
Cc1cc(C)c(C)c(S(=O)(=O)NC(C(=O)O)C(C)C)c1C (centres undefined)	18
COc1ccc([C@@H]2C[C@H](c3ccccc3)Oc3cc(C)cc(C)c32)cc1	15
O=C(NNc1ccc(Cl)cc1)c1c(F)cccc1Cl	23
